From PubChem BioAssay
2A StopGo – lowers the luciferase signal of an FMDV 2A StopGo reporter; human cells with a luciferase reporter of 2A StopGo recoding; control for the full effect not named in the record; Potency, µM (highest dose often 57.9 µM), for the others: at the highest dose signal change, negative = less light; actives 1.2% (n = 410,000); AID 1159524; active = well fitted falling curve with a large enough effect; inconclusive = small, poorly fitted or top-dose-only effect; inactive = no such curve, though single readings can be large or run the other way; tested in HEK293T cells; also: % is scaled to controls: 0 for no effect and ±100 for the full control effect; nearly all actives have a fitted effect of over 45% in size; luciferase light after 4 h
RE007 growth inh – less growth of the S. pombe RE007 Vpr strain; S. pombe RE007 Vpr strain, BacTiter-Glo ATP luminescence, 24 h; control for the full effect not named in the record; Potency, µM (top dose mostly 92.2 µM), for inactives: top-dose activity change, negative = less growth; actives 0.21% (n = 360,000); active = well fitted falling curve with a large enough effect; inconclusive = small, poorly fitted or top-dose-only effect; inactive = no such curve, though single readings can be large or run the other way;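 also: % is scaled to controls: 0 for no effect and ±100 for the full control effect; nearly all actives have a fitted effect of over 50% in size; the assay follows cell death caused by Vpr and the record does not say whether a fall means rescue or toxicity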
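Fission yeast strain RE007, carrying one chromosomally integrated HIV-1 vpr copy, was seeded at OD 0.01 in PMG+AL medium with 23 nL pinned compound. After 24 h at 30 °C and 99% humidity, viability was read by BacTiter-Glo luminescence.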
Cruzain Triton – cruzain (T. cruzi) inhibition with detergent; actives 0.43% (n = 200,000); Potency, µM, inactives show max response, negative = inhibition, hits mostly inhibitors; purified cruzain, Z-FR-AMC fluorescence, 0.01% Triton; AID 1478; P25779;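 also: plate controls were neutral wells for no effect and buffer without enzyme for full effect; nearly all actives have a fitted effect of over 40% in size; top concentration of the series not given in the record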
Target sequence (P25779 123-467 limits assumed): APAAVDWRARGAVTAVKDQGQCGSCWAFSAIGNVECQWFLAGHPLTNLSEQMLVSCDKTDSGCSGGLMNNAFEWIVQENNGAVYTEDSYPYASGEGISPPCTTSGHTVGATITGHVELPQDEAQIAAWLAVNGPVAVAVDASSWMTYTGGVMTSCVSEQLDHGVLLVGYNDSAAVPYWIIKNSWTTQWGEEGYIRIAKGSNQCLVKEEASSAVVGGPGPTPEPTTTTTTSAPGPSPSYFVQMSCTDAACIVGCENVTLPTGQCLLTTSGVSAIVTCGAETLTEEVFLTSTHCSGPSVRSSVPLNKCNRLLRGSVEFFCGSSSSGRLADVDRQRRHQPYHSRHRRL
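Z-FR-AMC hydrolysis (2 uM substrate) by cruzain (1.5 nM) monitored kinetically at ex 360/em 450 nm after 15 min room-temperature compound exposure; 0.01% Triton X-100, pH 5.5, 5 mM DTT.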
NS1 function inh – inhibitors of influenza NS1 protein function; actives 0.4% (n = 270,000); Potency, µM (top dose mostly 46.1 µM), without a hit: at the highest dose activity, positive = more growth; S. cerevisiae slowed by influenza A NS1, growth recovery by OD600; active means well fitted rising curve with a large enough effect; inconclusive means small, poorly fitted or top-dose-only effect; inactive means no such curve, though single readings can be large or run the other way; also: nearly all actives have a fitted effect of over 50% in size
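Compounds were scored for reversing the slow growth caused by influenza A NS1 in S. cerevisiae, measured by optical density at 600 nm. Assay medium contained 2% galactose at pH 6.0; NS1-free yeast of the same strain were the positive control.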
SARS PLpro yeast – inhibitors of SARS-CoV papain-like protease in yeast | S. cerevisiae expressing SARS-CoV PLpro, growth rescue; control for the full effect not named in the record | Potency, µM (doses to about 32.9 µM), without a hit: top-dose activity, positive = growth rescue | actives 0.19% (n = 330,000); active means well fitted rising curve with a large enough effect; inconclusive means small, poorly fitted or top-dose-only effect; inactive means no such curve, though single readings can be large or run the other way; also: 0% is about no effect; nearly all actives have a fitted effect of over 55% in size; growth read by luminescence after 48 h
MARV entry inh – blocks Marburg virus binding to or entry into cells; Marburg virus pseudotyped entry inhibition, cell reporter; control for the full effect not named in the record; about a third of the inactives were read at about 46 µM; Potency, µM (series often up to 37.8 µM), without a hit: top-dose activity change, negative = inhibition, hits mostly inhibitors; actives 1.8% (n = 300,000); AID 540276; active = well fitted inhibition curve with a large enough effect; inconclusive = small, poorly fitted or top-dose-only effect, or effect the other way; inactive = flat fitted curve, though single readings scatter; tested in HEK293 cells; about a fifth of its hits are not listed in these tables; also: % is scaled to controls: 0 for no effect and ±100 for the full control effect; luciferase read-out
Cruzain noTriton – inhibitors of Trypanosoma cruzi cruzain without detergent. P25779. purified cruzain, Z-FR-AMC fluorescence, no detergent. Potency, µM, without a hit: max response, negative = inhibition, actives largely listed as inhibitors. actives 2.3% (n = 200,000). AID 1476;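 also: plate controls were enzyme without inhibitor for no effect and buffer without enzyme for full effect; nearly all actives have a fitted effect of over 40% in size; top concentration of the series not given in the record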
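Detergent-free condition (0.00005% Triton X-100) in acetate buffer pH 5.5 with DTT. 1.5 nM enzyme and compound were pre-mixed 15 min, then 2 uM Z-FR-AMC substrate added; reaction progress from fluorescence change between first and third reads (60 s).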
LASV entry inh – inhibitors of Lassa virus binding or cell entry; actives 1.2% (n = 300,000); Potency, µM (series often up to 37.9 µM), for the others: top-dose activity change, negative = inhibition, usual class: inhibitors; AID 540256; Lassa virus pseudotype entry inhibition, cell reporter; control for the full effect not named in the record; active means well fitted inhibition curve with a large enough effect; inconclusive means small, poorly fitted or top-dose-only effect, or effect the other way; inactive means flat fitted curve, though single readings scatter; tested in HEK293 cells; also: % is scaled to controls: 0 for no effect and ±100 for the full control effect; nearly all actives have a fitted effect of over 50% in size; luciferase read-out
* hit, by the source's call; u = inconclusive; x = no result given; & = joins results of further samples; [ ] = dose if it differs, or a comment. Unless noted, calls follow the shape of the dose curve; as a rule, active = well fitted curve in the direction sought with a large enough effect; inconclusive = small, poorly fitted or top-dose-only effect, or another doubt; inactive = no such curve, though single readings can be large; an effect the other way counts as inactive or inconclusive. Potency is read from the fitted curve at half-maximal effect.

SMILES | 2A StopGo | RE007 growth inh | Cruzain Triton | NS1 function inh | SARS PLpro yeast | MARV entry inh | Cruzain noTriton | LASV entry inh
COc1ccc(C2CC(c3c(-c4ccccc4)c4cc(Cl)ccc4[nH]c3=O)=NN2S(C)(=O)=O)cc1 (stereo unspecified) | u | -10% | -1.3% | u | -1% | u | u | u
O=C(CSC1=NS(=O)(=O)c2ccccc2N1)N1CCCCC1 | 41%[activator] | 14% | x | x | 7% | -3% | x | -1%
O=C(c1[nH]ncc1-c1cccc(Br)c1)C1CO1 (stereo unspecified) | 35µM* | -3% | x | -2% | 0% | u | x | u
OCc1cn(-c2ccccc2)nc1-c1ccc(-c2nn(-c3ccccc3)cc2CO)cc1 | 0% | -1% | -4.6% | -13% | 5% | u | 0% | -15%
Cc1ccc(C)c(S(=O)(=O)N2CCCCC2CCNC(=O)C(=O)NCc2ccco2)c1 (stereo unspecified) | u | 0% | x | x | 0% | u | x | -25%
CN(C)C(=O)c1ccc(NC(=O)COC(=O)c2cc(S(=O)(=O)N(C)C)ccc2N2CCCC2)cc1 | -9% | 3% | x | x | -1% | -6% | x | 2%
O=[N+]([O-])c1ccc(CSc2ccc(-c3ccccn3)nn2)cc1 | -14% | -8% | x | 3% | 0% | 14%[46.1 µM] | x | -1%[46.1 µM]
Cc1ccc(COC(=O)c2cc(S(=O)(=O)N3CCCCC3)ccc2N2CCOCC2)cc1 | u | -8% | x | x | -2% | u | x | 7.1µM*
CCc1nnc(NC(=O)[C@@H](NC(=O)c2cccc(S(=O)(=O)N(CC)CC)c2)C(C)C)s1 | 5% | -4% | -2.4% | 11% | 16% | -19% | u | -3%
CCN(c1ccc(C)cc1)S(=O)(=O)c1nnc(NC(=O)C2CCCCC2)s1 | -10% | x | -3.5% | x | x | x | 23% | 2%[46.1 µM]
Cc1ccc(C(=O)Nc2ccc(-c3nc4ccccc4s3)cc2C)cc1C | 36%[activator] | x | -2.1% | x | x | u | -8% | 34%[46.1 µM]
CCCOc1ccc(C2/C(=C(/O)c3ccccc3)C(=O)C(=O)N2CCCN(C)C)cc1OC (stereo unspecified) | 1% | 0% | x | x | x | 13% | x | 18%
CCn1cc(C(=O)O)c(=O)c2cc(S(=O)(=O)N(C)C)ccc21 | -10% | 18% | 4.7% | 3% | -10% | 9% | -1% | -3%
CCS(=O)(=O)N1CCC(C(=O)NCCC2=CCCCC2)CC1 | 14% | 13% | 4.7% | -4% | 1% | -2% | 3% | 22%
c1ccc(-c2nnc(C3CC(c4cccnc4)=NO3)o2)cc1 (stereo unspecified) | -3% | 4% | x | 12% | -1% | x | x | x
COc1ccc2nc(C)c3cc(C)oc3c2c1 | -24% | -21% | -4.5% | -4% | -2% | 2% | 0% | 0%
CCCn1c(/C=C/c2cc[n+](C)cc2)nc2ccccc21 | -4% | -28% | x | 14% | -6% | -16%[46.1 µM] | x | -12%[46.1 µM]
CC(=O)N1CC=CC1(CC(C)C)C(=O)NCCc1c[nH]c2ccccc12 (stereo unspecified) | 0% | 26% | -0.4%&0.4% | 13% | -14% | 13% | 3%&-1% | 4%
O=C(C1CCN(c2ncnc3c2sc2cccc(F)c23)CC1)N1CCOCC1 | u | -7% | -5.6% | -59% | 5% | x | -1% | x
CCC(C)(C(=O)NC1CCCC1)N(C(=O)CNC(C)=O)c1ccccc1 (stereo unspecified) | 2% | 0% | 3.3% | 7% | -6% | 5% | -5% | -10%
Cc1ccc(SCCCCN2C(=O)NC(C)(C)C2=O)cc1 | x | -1% | 2.1% | -5% | u | 0% | 9% | 7%
COc1ccc(C(=O)NC(=S)Nc2ccc(N3CCCC3)cc2)cc1 | -24% | -20% | x | x | -1% | 0%[46.1 µM] | x | u
O=C(CSc1nc(-c2ccc(F)cc2)cc(C(F)(F)F)n1)NCc1cccs1 | 2% | 2% | -5.0% | 11% | 26% | 2% | 10% | 2%
CCc1ccc(NC(=O)CSC2=Nc3ccccc3C3=NC(CC(=O)NCc4ccc5c(c4)OCO5)C(=O)N23)cc1 (stereo unspecified) | 27% | x | -3.3% | x | x | x | -9% | 12%[46.1 µM]
O=C(COC(=O)c1ccc2ccccc2c1O)NCC(F)(F)F | 2% | 26% | x | 7% | -2% | x | x | x

Nothing new here: entries from further up.
SMILES | 2A StopGo | RE007 growth inh | Cruzain Triton | NS1 function inh | SARS PLpro yeast | MARV entry inh | Cruzain noTriton | LASV entry inh
CCc1ccc(NC(=O)CSC2=Nc3ccccc3C3=NC(CC(=O)NCc4ccc5c(c4)OCO5)C(=O)N23)cc1 (stereo unspecified) | 27% | x | -3.3% | x | x | x | -9% | 12%[46.1 µM]
O=C(COC(=O)c1ccc2ccccc2c1O)NCC(F)(F)F | 2% | 26% | x | 7% | -2% | x | x | x

Additional entries:
SMILES | 2A StopGo | RE007 growth inh | Cruzain Triton | NS1 function inh | SARS PLpro yeast | MARV entry inh | Cruzain noTriton | LASV entry inh
COc1ccc([N+](=O)[O-])cc1NC(=O)C1CCCNC1=O (stereo unspecified) | 3% | 3% | x | 2% | 1% | u | x | 27%
O=C(Nc1nc2ccccc2n1CCN1CCOCC1)c1ccc(Cn2cc([N+](=O)[O-])cn2)o1 | -12% | -2% | x | -2% | 2% | u | x | u
Cc1[nH]n(-c2ccc([N+](=O)[O-])cc2)c(=O)c1C=NCCN1CCN(C(=O)c2ccc(Br)cc2)CC1 | u | 7.1µM* | -7.4% | 0% | -28% | -24% | u | -14%
Cc1ccc(N2CC(c3nc(-c4ccc(Cl)cc4)no3)CC2=O)cc1F (stereo unspecified) | -7% | x | -1.6% | x | x | x | -8% | 9%[46.1 µM]
CC(NC(=O)COC(=O)CCc1nc(=O)c2ccccc2n1C)c1ccccc1 (stereo unspecified) | -4% | 4% | x | x | 7% | u | x | 4%[46.1 µM]
Nc1ncnc(N(c2ccccc2)C2CCCCC2)c1[N+](=O)[O-] | -4% | -7% | 5.6% | 19% | 7% | 5% | 4% | 21%
Cn1c(CCNC(=O)C2CCCCC2)nc2cc([N+](=O)[O-])ccc21 | -11% | 1% | x | -1% | 0% | u | x | -14%
COc1ccc(Nc2sc(C(=O)c3ccc(Cl)cc3)c(N)c2C(=O)Nc2ccccc2OC)cc1 | -24% | -19% | 0.1% | 0% | -5% | u | 4µM* | -28%
CCN(CC)c1ccc(NC(=O)c2cnccn2)cc1S(=O)(=O)Nc1ccc(OC)cc1 | 62%[activator] | x | -6.1% | -21% | 16% | u | 8% | u
Cn1c2ccccc2c(=O)c2c(=O)n(-c3ccc(F)cc3)c(-c3cccs3)nc21 | 0% | -20% | x | -1% | -1% | 13%[46.1 µM] | x | 11%[46.1 µM]
COc1cc(C=O)ccc1Oc1nnnn1-c1ccccc1 | 0% | 0% | x | 2% | -2% | 1%[46.1 µM] | x | 3%[46.1 µM]
CC(=O)Nc1ccc(/C=C(\C#N)C(=O)NC2CCCCC2)cc1 | -8% | 0% | x | 2% | 0% | 8%[46.1 µM] | x | 1%
Cc1ccccc1C(=O)N=c1sccn1C | 30%[activator] | 8% | 5.2% | -13% | 9%[6.58 µM] | 4%[46.1 µM] | 2% | 36%
COc1ccc(NC(=O)CCS(=O)(=O)c2ccc3c(c2)CCCN3C(C)=O)cc1 | 8% | 0% | 1.1% | -2% | -8% | 11% | 1% | 0%
O=C(Nc1ccc(Cl)c(C(=O)N2CCOCC2)c1)c1ccccc1 | 15% | 29% | x | 7% | -1% | -11%[46.1 µM] | x | u
COc1ccccc1N=Nc1c(C)[nH]n(-c2ccccc2)c1=O | -1% | 0% | x | 0% | -4% | x | x | x
Cc1cc(C(=O)Cn2c(CO)nc3ccccc32)c(C)n1C | 8% | 4% | x | 3% | 1% | 5%[46.1 µM] | x | 20%
CSCCC(NC(=O)c1ccco1)c1nc2ccccc2[nH]1 (stereo unspecified) | 0% | 15% | x | -4% | 0% | x | x | x
N/C(=N\OC(=O)c1ccccc1[N+](=O)[O-])c1cccnc1 | 29% | -6% | -0.9% | 7% | -5% | 23% | 1% | -9%
Cc1ccc2c(c1)cc1c(=O)n(CC(=O)N3CCC4(CC3)OCCO4)nc(C)n12 | 7% | -7% | x | -1% | 2% | x | x | x
Cc1ccc2[nH]c3nc(SCCN4CCOCC4)nnc3c2c1 | 17% | -11% | -4.5% | -2% | 7% | 4% | -13% | u
CC(C)c1ccc(S(=O)(=O)N2CCN(C(=O)C3CCN(C(=O)c4ccc(F)cc4)CC3)CC2)cc1 | -25% | 11% | x | -6% | 15% | -13%[46.1 µM] | x | -13%
CCN(CC)c1ccc(-c2nc(-c3ccco3)no2)cc1[N+](=O)[O-] | -27% | x | -3.6% | x | x | u | 16µM* | -1%[46.1 µM]
Cc1cccc(C(=O)NCCCNC(=O)c2ccco2)c1 | 52%[activator] | -13% | x | -4% | -2% | 3%[46.1 µM] | x | -16%[46.1 µM]
COc1ccc(/C=N/NC(=O)CC(=O)NCCc2ccccc2)cc1OC | 10% | 8% | -1.1% | 4% | -3% | u | -10% | -3%
COc1ccc(NC(=O)CN(C)CC(=O)Nc2cccc(S(=O)(=O)N(C)c3ccccc3)c2)cc1 | u | 11% | x | x | 1% | u | x | u
CCOc1ncccc1C(=O)Nc1nnc(C2CC2)s1 | 12% | 7% | x | -11% | -2% | 2%[46.1 µM] | x | x

Among those listed so far, 4 contain a thiophene ring, fused or not:
SMILES | 2A StopGo | RE007 growth inh | Cruzain Triton | NS1 function inh | SARS PLpro yeast | MARV entry inh | Cruzain noTriton | LASV entry inh
O=C(C1CCN(c2ncnc3c2sc2cccc(F)c23)CC1)N1CCOCC1 | u | -7% | -5.6% | -59% | 5% | x | -1% | x
O=C(CSc1nc(-c2ccc(F)cc2)cc(C(F)(F)F)n1)NCc1cccs1 | 2% | 2% | -5.0% | 11% | 26% | 2% | 10% | 2%
COc1ccc(Nc2sc(C(=O)c3ccc(Cl)cc3)c(N)c2C(=O)Nc2ccccc2OC)cc1 | -24% | -19% | 0.1% | 0% | -5% | u | 4µM* | -28%
Cn1c2ccccc2c(=O)c2c(=O)n(-c3ccc(F)cc3)c(-c3cccs3)nc21 | 0% | -20% | x | -1% | -1% | 13%[46.1 µM] | x | 11%[46.1 µM]
